TRPML1 agonist: human mucolipin-1 channel agonism. AID 624414. actives 0.12% (n = 410,000). activation, % (test concentration not listed). TRPML1-expressing cells, Ca2+ dye fluorescence, FDSS; host cell line not named in the record; reference of the full effect not given here; in the data active = activation above about 50%; inconclusive = about 30% to 50%; inactive = below about 30%; further: 0% is about no effect; the text of the record puts the active cut at 80%
Target sequence (Q9GZU1 whole entry, looked up): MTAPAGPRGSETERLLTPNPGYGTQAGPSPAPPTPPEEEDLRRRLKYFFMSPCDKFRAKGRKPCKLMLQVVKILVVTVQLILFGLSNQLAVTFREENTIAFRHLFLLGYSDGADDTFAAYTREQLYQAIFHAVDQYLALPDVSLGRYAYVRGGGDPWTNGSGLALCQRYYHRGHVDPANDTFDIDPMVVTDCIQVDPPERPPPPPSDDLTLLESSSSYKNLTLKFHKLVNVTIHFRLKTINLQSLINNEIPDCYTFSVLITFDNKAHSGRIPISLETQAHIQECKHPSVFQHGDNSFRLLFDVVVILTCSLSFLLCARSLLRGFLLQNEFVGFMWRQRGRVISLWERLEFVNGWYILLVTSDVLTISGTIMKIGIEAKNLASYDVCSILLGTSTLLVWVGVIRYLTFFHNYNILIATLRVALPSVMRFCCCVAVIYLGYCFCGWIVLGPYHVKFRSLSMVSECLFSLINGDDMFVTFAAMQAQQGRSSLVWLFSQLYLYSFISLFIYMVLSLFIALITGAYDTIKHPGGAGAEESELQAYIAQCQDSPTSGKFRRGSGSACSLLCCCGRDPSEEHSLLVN
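Cells: TRPML1-DL, 1X Tet inducer, ~16 h at 37 degrees C/5% CO2. Dye: ABD Ca8 no-wash + quencher, 45-90 min RT. Read: 10 s baseline, compound add, 110 s agonist phase; 54-4 EC80 (4uM final), 110 s antagonist phase.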
CtBP-E1A inh: inhibitors of CtBP/E1A interaction | actives 0.49% (n = 340,000) | activity change, % (no concentration beside the values) | AlphaScreen GST-E1A/His-CtBP binding, 1536-well; active compounds read low; control for the full effect not named in the record; in the data active means activity change below about -65%; inconclusive means about -30% to -65%; inactive means above about -30%; further: on the % scale 0 is the no-effect control and ±100 the full control effect
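Steps: dispense buffer (Tris pH 8.0, NaCl 300 mM, TCEP 1 mM, BSA, Tween 20); add 5X protein mix (GST-E1A, His-CtBP, 125 nM each); pin 23 nL compound; 2 h at 37 °C, dark; add 5X beads (50 ug/mL); 1 h; read.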
D2 potentiator: potentiates the human D2 dopamine receptor allosterically | actives 0.23% (n = 360,000) | AID 624464 | potentiation, % (test concentration not listed) | P14416 | DiscoveRx D2 beta-arrestin cells, luminescence, 90 min; 100% = 57 uM dopamine signal; active = potentiation of 50% or more; inconclusive = 30% to 50%; inactive = 30% or less;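 further: compound concentration not given in the record; tested on top of an EC20 dose of dopamine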
Target sequence (P14416 whole entry, looked up): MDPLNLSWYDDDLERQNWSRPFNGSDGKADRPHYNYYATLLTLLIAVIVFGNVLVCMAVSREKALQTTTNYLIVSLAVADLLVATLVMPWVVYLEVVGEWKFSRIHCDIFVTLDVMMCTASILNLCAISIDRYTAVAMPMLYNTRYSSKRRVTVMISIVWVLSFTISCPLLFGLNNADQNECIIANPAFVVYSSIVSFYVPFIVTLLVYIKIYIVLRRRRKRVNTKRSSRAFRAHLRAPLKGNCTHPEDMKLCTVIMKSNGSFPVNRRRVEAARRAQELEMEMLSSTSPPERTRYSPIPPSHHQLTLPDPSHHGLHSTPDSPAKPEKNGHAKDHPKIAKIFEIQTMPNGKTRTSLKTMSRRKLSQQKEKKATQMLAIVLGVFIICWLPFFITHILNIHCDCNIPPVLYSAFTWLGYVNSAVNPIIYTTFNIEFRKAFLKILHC
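PathHunter beta-arrestin assay in DiscoveRx D2 cells. Compounds were added with an EC20 of dopamine (50 nM final) for 90 min at 37 deg C. Luminescence was read 1 h after detection reagent, with 57 uM dopamine as the EC100 control.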
Six1-Eya2 inh: blocks human Six1 binding to Eya2 | AlphaScreen GST-Six1/His-Eya2 binding, biochemical; active compounds read low; control for the full effect not named in the record | activity change, % (no concentration beside the values) | Q15475+O00167 | actives 0.56% (n = 360,000); in the data active = activity change below about -65%; inconclusive = about -30% to -65%; inactive = above about -30%; further: on the % scale 0 is the no-effect control and ±100 the full control effect
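Six1/Eya2 binding was read as AlphaScreen signal after compounds were pinned into GST-Six1 plus His-tagged Eya2 (5X stock 250/500 nM) in pH 8.0 Tris/NaCl/TCEP buffer, beads added, then incubated 1 h, 37 C, dark.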
PINK1 expr mod: changes PINK1 expression; PINK1 immunofluorescence, high-content cytometry, 24 h; Potency, µM (series often up to 76.6 µM), inactives show top-dose activation (PINK1 increase), most hits filed as activators; actives 0.2% (n = 410,000); AID 624263; active = well fitted activation curve with a large enough effect; inconclusive = small, poorly fitted or top-dose-only effect; inactive = flat fitted curve, though single readings scatter; cell line not stated here;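 further: potency means the concentration at half of the fitted maximal effect; % of control where 0% means no effect; nearly all actives have a fitted effect of over 65% in size; a mitochondrial uncoupler was the plate control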
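Compound titrations (5 concentrations, 24 h) on a stable cell line; DMSO and CCCP controls. Endpoint: fixed-cell PINK1 immunofluorescence with mitochondrial, cell and nuclear markers, scanned by microplate cytometer.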
D2 ag: agonists of human D2 dopamine receptor (beta-arrestin) | P14416 | activation, % (concentration not given with the values) | actives 0.084% (n = 360,000) | DiscoveRx PathHunter D2 beta-arrestin, luminescence, 90 min; 100% = 57 uM dopamine signal; in the data active = activation above about 40%; inconclusive = about 15% to 40%; inactive = below about 15%; further: compound concentration not given in the record; the text of the record calls up to 30% inactive
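DiscoveRx PathHunter D2 beta-arrestin cells (2,100/well) attached overnight, then compound-stimulated 90 min at 37 C in HBSS/10 mM HEPES/0.1% Tween-20 buffer; beta-galactosidase complementation read by luminescence after 1 h at ambient temperature. Dopamine 57 uM final (EC100) as control.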
Numbers without * were called inactive; u = inconclusive; x = not tested or not shown; & = joins results of further samples; [ ] = dose if it differs, or a comment.

Order of results – TRPML1 agonist	CtBP-E1A inh	D2 potentiator	Six1-Eya2 inh	PINK1 expr mod	D2 ag
1: COc1cc(C(=O)NCCOc2cccc(C)c2)c(Br)c(OC)c1OC
→ -0.1	4.7	-2.5	2.2	1.2%	-1.3
2: c1ccc2c3c([nH]c2c1)CCNC3
→ 0.5	-3.8	-8.8	-2.7	0.6%	0.7
3: CC1CCCCN1C(=S)Nc1ccc2nc3n(c(=O)c2c1)CCCCC3 (stereo not given)
→ 1.7	-6.2	-13.2	-18.4	10.2%	-3.6
4: O=C(CSc1nnc(NC(=O)c2cccc(F)c2)s1)NCC1CCCO1 (stereo not given)
→ 0.1	3.0	-3.4	-1.3	2.1%	-1.0
5: Cn1c(=O)c2sccc2n2c(CCCC(=O)NCc3ccco3)nnc12
→ 0.2	x	-3.3	5.5	2.1%	-3.8
6: CC(=O)/C(=N/Nc1ccccc1)Sc1nnc(CCc2ccccc2)n1-c1ccccc1
→ 2.6	-6.9	-27.1	-7.5	0.8%	-5.8
7: c1ccc(-c2nc(-c3ccco3)n3ccccc23)cc1
→ 2.0	3.8	-26.7	8.1	0.8%	-1.5
8: CC[C@H]1O[C@H](C)CC2=C1C(=O)OC(C)(C)O2
→ -0.3	2.5	x	5.9	0.7%	x
9: O=C1NC(=Nc2ccc(Cl)cc2)SC1Cc1cc(Cl)ccc1Cl (stereo not given)
→ 2.0	-7.8	-27.4	-5.3	u	-5.1
10: Cc1cc(=O)oc2c(CN3CC(C)OC(C)C3)c(O)c(Cl)cc12 (stereo not given)
→ 0.1	-0.5	-10.7	0.7	2.0%	-4.5
11: CC(=O)Oc1ccc(/C=C(\NC(=O)c2ccco2)C(=O)NCc2ccco2)cc1
→ 1.6	-4.0	-6.8	-1.2	-0.1%	1.3
12: C1CCN(CCCNC2C3CC4CC(C3)CC2C4)C1 (stereo not given)
→ 0.4	-12.6	-19.7	-3.5	-2.3%	-2.7
13: COc1cc(/C=C2\SC(=S)N(NS(=O)(=O)c3ccc(C)cc3)C2=O)cc(OC)c1OC
→ 0.7	-16.7	-11.1	-6.0	1.3%	-3.4
14: COc1ccc(CC(=O)NC(CC(=O)O)c2cccc([N+](=O)[O-])c2)cc1 (stereo not given)
→ -0.8	4.0	-4.5	4.3	0.3%	-4.2
15: Cc1ccc(NC(=O)CN(C)C(=O)c2ccc(NC(=O)CC3SC(N4CCCC4)=NC3=O)cc2)cc1 (stereo not given)
→ 0.4	4.6	5.8	5.7	1.7%	-2.1
16: Cc1ccn(C(=O)c2ccc(NC(=O)C3CC3)cc2)n1
→ 0.4	x	-3.9	0.6	5.5%	-0.8
17: COc1ccc(C(=O)ON=C2c3ccccc3-c3ccccc32)cc1OC
→ -0.3	5.9	-10.7	9.6	12.5%	-1.9
18: O=C(N/C(=C\c1ccco1)C(=O)N1CCCC1)c1ccccc1
→ 0.5	28.7	-5.8	1.3	-0.3%	-3.6
19: COCCn1c(-c2ccc(OC)cc2)nc2oc3cc(OC)ccc3c(=O)c2c1=O
→ 0.0	5.0	6.2	-4.4	-3.9%[38.3 µM]	-2.6
20: Oc1ccc(/C=N/N(Cc2ccccc2)c2ccccc2)cc1
→ 2.0	-15.0	5.9	-14.4	0.0%	10.5
21: COc1c[nH]n(C2CCCCC2)c(=O)c1=O
→ 2.8	11.7	-12.8	3.1	2.3%[38.3 µM]	-2.7
22: Cc1ccccc1OCc1nc(C#N)c(N2CCCC2)o1
→ 0.5	1.1	0.5	-3.8	2.9%	3.4
23: CC1(C)CC(=O)C2=C(C1)N(Cc1ccco1)C(=O)C2(NC(=O)c1cccnc1)C(F)(F)F (stereo not given)
→ -0.9	8.7	-7.7	0.4	1.9%	-3.9
24: CCC(C)[C@H](NS(=O)(=O)c1ccc(F)cc1Br)C(=O)OC (stereo not given in full)
→ -0.7	12.7	2.2	14.1	0.2%	0.4
25: Cc1occc(=O)c1O
→ 0.3	-15.4	-9.7	3.9	0.1%&0.4%	1.5
26: COC(=O)Cn1c(=NC(=O)c2ccc(Cl)s2)sc2cc(C)ccc21
→ 0.4	6.0	-15.6	2.8	9.2%	-3.8
27: CCOC(=O)C1CCN(C(=O)CNC(=O)c2nn(-c3ccc(OC)cc3OC)c(=O)c3ccccc23)CC1
→ 2.2	-10.5	-4.5	-0.1	-2.5%	-4.1
28: COc1cc(NC(=S)N2CCCC(C)C2)cc(OC)c1OC (stereo not given)
→ 0.3	x	-7.0	-1.7	-0.3%	-8.3
29: O=c1oc2cc(Oc3ccc(C(F)(F)F)cc3[N+](=O)[O-])ccc2c2c1CCC2
→ 0.1	0.0	-2.7	-1.6	0.9%	0.0
30: CCNC(=O)C1(C)CCN(C(=O)c2cc(OC)c(OC)c(OC)c2)C1 (stereo not given)
→ 0.5	12.2	-12.2	6.6	0.4%	-1.6
31: O=C(CCC1N=C2c3ccccc3N=C(SCC(=O)NCc3ccco3)N2C1=O)NCc1ccco1 (stereo not given)
→ -0.1	7.7	-20.0	18.2	0.3%	-5.2
32: CC1CC(C)CN(CCCNC(=O)c2ccc3c(c2)N(Cc2ccccc2)C(=O)c2ccccc2S3=O)C1 (stereo not given)
→ 0.9	x	-22.3	-8.5	0.2%	-6.1
33: C=CCc1cccc(CNc2c(C)cc(C)cc2C)c1O
→ -0.1	15.4	-4.8	4.9	7.0%	1.3
34: O=C(N/N=C/c1ccc(-c2ccc(Br)cc2)o1)c1ccc2c(c1)OCO2
→ 0.2	7.5	-6.1	10.8	11.2%	1.1
35: Cc1oc2c(C)c3oc(=O)c(CC(=O)N[C@@H](CCCNC(N)=O)C(=O)O)c(C)c3cc2c1C
→ -0.1	x	-5.5	-16.0	-0.1%	-0.2
36: CCN(C1CCCCC1)S(=O)(=O)c1ccc(S(=O)(=O)NCc2ccncc2)cc1
→ -0.3	6.1	-3.3	2.7	0.4%[38.3 µM]	6.9
37: COc1ccc(N2CCN(c3ncnc4c3[nH]c3ccccc34)CC2)cc1
→ -1.5	-20.6	7.0	-25.8	5.8%	-0.7
38: Cc1ccnc(SCC(=O)Nc2c(C)n(C)n(-c3ccccc3)c2=O)n1
→ -1.0	12.0	-7.9	1.8	-3.2%	-3.7
39: CC(Sc1nnc(-c2cccnc2)n1N)C(=O)N1CCOCC1 (stereo not given)
→ 0.0	-12.2	-8.1	-1.0	-0.5%	0.1
40: COC(OC)c1ccc(C#N)c(=O)[nH]1
→ 0.2	9.8	-2.2	1.5	0.2%	-2.4
41: CSc1nc2ccc(NC(=O)c3ccccn3)cc2s1
→ 0.1	-3.9	-4.9	5.2	6.5%	1.7
42: Cc1n[nH]c(C)c1Sc1ccccc1N=Cc1cc(Cl)cc([N+](=O)[O-])c1O
→ 0.7	-3.0	-30.4	10.8	2.7%	-7.4
43: c1ccc(CNc2c(-c3cccc(SC4CCCCC4)c3)nc3ccccn23)cc1
→ -0.2	-3.0	7.3	4.3	u	13.1
44: CCCN(C(=O)c1ccc([N+](=O)[O-])c(C)c1)c1c(N)n(Cc2ccccc2)c(=O)[nH]c1=O
→ 0.3	x	-2.2	-0.8	1.5%	-3.3
45: O=C(Cc1cccs1)N(Cc1cccs1)C1(C(=O)NC2CCCC2)CCCCC1
→ 0.3	3.0	-1.5	1.5	-4.2%	-3.9
46: CCc1noc(C)c1C(=O)Nc1nc(-c2ccc(Cl)cc2Cl)cs1
→ 2.0	5.4	-6.9	-0.4	u	1.6
47: Cc1ccc(OCC(=O)N/N=C\c2ccco2)c(C)c1
→ 0.4	5.8	-10.5	-1.0	0.5%[38.3 µM]	0.4
48: CCOc1ccc2oc(C(=O)N3CCN(Cc4ccccc4)CC3)c(C)c2c1
→ 1.9	-4.8	-11.5	-11.4	4.9%	-4.0
49: CCOC(=O)NC(=O)CSc1nnc(C2CC2)n1Cc1ccco1
→ -0.1	11.1	-2.9	-4.6	-1.1%	-1.6
50: O=C(O)c1cc2c(o1)CCC/C2=N\O
→ 0.1	-13.6	-9.8	-0.7	-1.3%[38.3 µM]	-1.6
51: COC(=O)CN(C#N)c1nc(N(C)C)nc(N(C)C)n1
→ 0.7	2.0	-4.3	-0.2	-1.7%	0.6
52: COc1cc2c(cc1NC(=O)Cc1ccc(C)cc1)oc1ccccc12
→ 3.3	-4.7	-2.8	8.0	0.9%	-9.7
53: Cn1cccc1C(=O)OCC(=O)Nc1ccc2c(c1)CCC2
→ 1.6	-3.2	-14.2	-5.1	7.2%	-2.7
54: CCOc1ccc(S(=O)(=O)N2CCCCC2)cc1NC(=O)C1CCCC1
→ 0.4	-0.1	-9.8	0.7	-0.7%	-2.0
55: Cc1cc(Br)ccc1OCC(=O)N(Cc1nc(-c2ccccc2)no1)C(C)C
→ 4.3	13.7	-1.0	8.2	3.5%[38.3 µM]	1.0
56: CN1CCN(S(=O)(=O)c2ccc(Cl)s2)CC1
→ -0.2	6.2	6.1	6.0	1.1%	-1.9
57: CCOC(=O)c1ccc(Nc2cc(C)nc3nc(C)nn23)cc1
→ -1.1	-0.5	0.3	-13.2	-1.4%	-5.0
58: CC(=O)OC(C(=O)NC1CCCCC1)c1ccc(C#N)cc1 (stereo not given)
→ 4.9	0.4	-13.3	6.6	-1.0%	-2.8
59: Cc1ccc(OCC(=O)Oc2cccc(C)c2)cc1
→ 1.3	x	0.2	4.4	0.3%	-2.2
60: O=C(CN1C(=O)S/C(=C\c2ccccc2)C1=O)NC1CCS(=O)(=O)C1 (stereo not given)
→ -0.4	-9.1	-5.4	-4.3	0.7%	-1.3

Next part.
Order of results – TRPML1 agonist	CtBP-E1A inh	D2 potentiator	Six1-Eya2 inh	PINK1 expr mod	D2 ag
61: O=C(CSc1ccc(-c2cccs2)nn1)N1CCCCC1
→ 2.5	0.5	-6.6	-5.7	2.0%	0.0
62: CNc1ccc(/C=C/C(=O)c2ccc(C)cc2)cc1[N+](=O)[O-]
→ 0.0	2.6	-4.5	5.3	2.0%	-11.1
63: COc1ccc(C)cc1S(=O)(=O)Nc1cccc(-c2ccc(N3CCCCCC3)nn2)c1
→ 2.3	-20.7	-11.1	-7.8	1.5%	9.0
64: O=C(/C=C/c1ccco1)Nc1ccccc1C(=O)O
→ 1.0	-20.6	4.2	-24.8	3.7%	5.3
65: COc1ccc(-c2cc(C)no2)cc1S(=O)(=O)N(C)c1cccc(C)c1
→ 3.7	-4.2	-14.8	-0.4	-2.0%	7.1
